Compound activity deposited in PubChem BioAssay by ICCB-Longwood Screening Facility, Harvard Medical School.
Vaccinia pol inh: vaccinia E9 polymerase processive synthesis inhibition; in vitro processive DNA synthesis, absorbance read-out; stronger effect = lower value; some inactives read as strong as hits; normalized absorbance, % (no concentration beside the values); 46,000 tested, 0.94% active;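 active means replicate mean up to 90% and picked by the depositor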;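 further: 100% = median of the test wells of a plate; 100 nL library stock went into each well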
Starred values were filed as active, the others as inactive. Not all compounds are listed, so the mix of outcomes need not match the whole.

item | molecule | Vaccinia pol inh
1 | C/C(=C/C(=O)C1CC1)C1CC1 | 100.2
2 | COC(=O)c1cc2c(Cl)nc3ccc(C)cc3c2s1 | 91.3
3 | COc1ccc(CCNC(=O)c2ccc3c(=O)n(CCC4=CCCCC4)c(=S)[nH]c3c2)cc1OC | 102.9
4 | O=C(NCc1ccc(S(=O)(=O)N2C=CC(C(F)(F)F)=NCC2)s1)c1ccccc1 | 89.3
5 | Cc1nnc(SCCC(=O)Nc2cccc(-c3nc4ccccc4s3)c2)s1 | 98.5
6 | O=C(O)CC(NCc1ccccc1)c1ccccc1 (stereo unspecified) | 100.4
7 | Cc1ccc(S(=O)(=O)CC(=O)Nc2ccc(-c3nc4ccc(C)cc4s3)cc2)cc1 | 99.5
8 | Oc1ccc(Nc2ccccc2)cc1 | 105.5
9 | CC(=O)OC1(c2ccccc2)CC(C)CN(C)C1 (stereo unspecified) | 100.3
10 | CCC(=O)c1cc(N)ccc1O | 95.4
11 | CC(=O)Nc1cccc(-c2cn3c(C)cccc3n2)c1 | 96.0
12 | CC(SCc1nc2ccccc2[nH]1)c1ccccc1 (stereo unspecified) | 103.7
13 | O=C(NCCc1c[nH]c2ccccc12)c1cc(Cl)cc(Cl)c1 | 92.8
14 | Cc1c(O)ccc2c(=O)c(Oc3ccccc3)coc12 | 101.7
15 | Cc1ccccc1OCCn1c(SCc2nc3ccccc3[nH]2)nc2ccccc21 | 99.8
16 | Cn1c(CNC(=O)c2cccs2)nnc1SCc1ccccc1 | 94.8
17 | CC1S/C(=C(/C#N)C(N)=O)N(c2ccccc2)C1=O (stereo unspecified) | 115.9
18 | Cn1c(CC(O)c2cccc3ccccc23)nc2ccccc21 (stereo unspecified) | 101.7
19 | O=C(Cn1ncc2ccccc21)NCc1cccnc1 | 81.5
20 | CNC1=C(n2nnc3ccccc32)C(=O)c2ccccc2C1=O | 100.7
21 | COc1ccc(C(=O)CSc2nc(C)cc(C)c2C#N)cc1 | 94.9
22 | O=C1CC(c2ccccc2)CC(O)=C1C=NCc1ccco1 (stereo unspecified) | 98.7
23 | CC(NC(=O)c1ccc2c(c1)OCO2)C(c1cccs1)N1CCOCC1 (stereo unspecified) | 100.1
24 | Cc1ccccc1CSc1cnc2ccccc2n1 | 103.2
25 | CNC(=S)Nc1ccc(C)cc1 | 98.4

Sorted by formula weight (high to low): some entries from above
item | molecule | Vaccinia pol inh
16 | Cn1c(CNC(=O)c2cccs2)nnc1SCc1ccccc1 | 94.8
17 | CC1S/C(=C(/C#N)C(N)=O)N(c2ccccc2)C1=O (stereo unspecified) | 115.9
6 | O=C(O)CC(NCc1ccccc1)c1ccccc1 (stereo unspecified) | 100.4

Further results.
item | molecule | Vaccinia pol inh
26 | CCOC(=O)C1=C(CN2CC(C)CC(C)C2)NC(=O)NC1c1ccc(C)cc1 (stereo unspecified) | 87.5
27 | N#CC1=C(N)N=C(SCC(=O)Nc2ccccc2)C(C(N)=O)C12CCCCC2 (stereo unspecified) | 100.3
28 | CC(C)(C)c1cc(CCC(=O)NCCN)cc(C(C)(C)C)c1O | 100.0
29 | CCOCC(=O)Nc1c(C(=O)Nc2cccc(OC)c2)oc2ccccc12 | 94.8
30 | CN(C(=O)Cn1nc(Cc2ccncc2)c2ccccc2c1=O)c1ccccc1 | 98.2
31 | Cc1ccccc1C(CC(=O)O)N1Cc2ccccc2C1=O (stereo unspecified) | 108.8
32 | CN(C)C1CS(=O)(=O)CC1N(C)C (stereo unspecified) | 98.9
33 | C=CCC(O)(CC=C)C(N)Cc1ccccc1 (stereo unspecified) | 104.0
34 | COc1ccc(CC2C(=O)OC(C)(C)OC2=O)c(Cl)c1OC | 89.2
35 | Nc1ccc(C(=O)NCC(=O)O)cc1 | 98.7
36 | C=CC[N+](C)(C)CCN1C(=O)C2C(c3ccccc3)C=CC(c3ccccc3)C2C1=O (stereo unspecified) | 98.5
37 | COc1ccc2c(c1)CCC/C2=N\N | 100.2
38 | Oc1oc(-c2ccccc2)nc1/C=C1\C=Nc2ccccc21 | 91.6
39 | COc1cccc(-c2nnc(SCC(=O)N3CCCC(C)C3)o2)c1 (stereo unspecified) | 97.7
40 | CCN1CCc2c(sc3[nH]c(=S)[nH]c(=S)c23)C1 | 90.9
41 | O=C(NC1CC1)c1sc2ccccc2c1Cl | 101.9
42 | COc1ccc(NC(=O)c2c3c(nc4ccccc24)CCCC3)cc1 | 106.9
43 | CCOc1ccc2cc(-c3ccccn3)c(=N)oc2c1 | 102.7
44 | O=S(=O)(Nc1cccc(C(F)(F)F)c1)c1ccccc1 | 96.8
45 | CN1CCc2ccccc2C1Cc1ccccc1NS(=O)(=O)c1cccc(C(F)(F)F)c1 (stereo unspecified) | 97.1
46 | CC(C)CC(=O)N1c2ccccc2NC2=C(C(=O)CC(C)(C)C2)C1c1cccnc1 (stereo unspecified) | 99.2
47 | COCCn1c(C)cc(C(=O)CSc2nnc3ccccn23)c1C | 112.2
48 | COc1ccc(C2=C(N)C(=O)NC2=O)cc1OC | 99.3
49 | CCC(=O)Nc1c(-c2ccc(F)cc2)nc2ccccn12 | 101.2
50 | c1ccc2sc(COCc3cn4ccccc4n3)nc2c1 | 98.4
51 | Cc1ccc(-c2nc(C#N)c(NCCCN(C)C)o2)cc1 | 100.5
52 | O=C1CC(N(O)c2ccccc2)C(=O)N1c1ccc(N2CCOCC2)cc1 (stereo unspecified) | 98.6
53 | C/S(=N/C(=O)Nc1ccc(Cl)cc1)c1ccc(OC(=O)c2ccc(Cl)cc2)cc1 (stereo unspecified) | 93.5
54 | CCNc1nc2[nH]c(=O)c3c(c2s1)OC(N)=C(C#N)C3c1cccs1 (stereo unspecified) | 99.1
55 | CCCN1C(=O)/C(=C/C=C2/Sc3ccccc3N2CCO)SC1=S | 99.8
56 | O=C(Nc1cc2ccccc2s1)NC1CCN(Cc2ccccc2)CC1 | 95.5
57 | Cc1ncsc1C(=O)OC(C#N)c1cccc(Oc2ccccc2)c1 (stereo unspecified) | 99.5
58 | Clc1ccccc1Cn1c(C2CCCO2)nc2ccccc21 (stereo unspecified) | 87.2
59 | CCc1cccc(NC(=S)N2CCC(c3ccccc3)C2)c1 (stereo unspecified) | 102.9
60 | O=C(COc1ncnc2ccccc12)N1CCc2ccccc21 | 106.8
61 | COc1ccc(CCNc2nc(Cl)nc(N3CC4CC(C3)c3cccc(=O)n3C4)n2)cc1OC (stereo unspecified) | 100.1
62 | CCC(C(=O)OC)n1cnc2c(nnn2-c2cccc(Cl)c2)c1=O (stereo unspecified) | 98.7
63 | Cc1cc(C(=O)OCC(=O)N2CCCC2)c2ccccc2n1 | 96.9
64 | C[N+]1(C2CCCCC2)Cc2ccccc2C1 | 100.0
65 | CCN(C(=O)c1cccc2c1SCCC2=O)c1cc(Cl)ccc1OC | 92.2
66 | O=C(NC(c1ccccc1)c1ccccc1)c1cccnc1 | 98.3
67 | O=C(Nc1ccc(N2CCCCC2)cc1)C1CCCCC1 | 93.8
68 | CSc1nc2nc(N)nc(N)c2s1 | 99.6
69 | Cc1nc2ccccc2c(=O)n1/N=C/c1ccc(Cl)c(Cl)c1 | 101.1
70 | Cc1cccc2c(=O)n(CCNCc3ccccc3)c(C)nc12 | 115.7
71 | CCC(C(=O)Nc1ccccc1OC)n1c(C(=O)OC)cc2occc21 (stereo unspecified) | 105.8
72 | O=C(O)/C=C\C(=O)Nc1ccccc1C(=O)O | 100.3
73 | O=C(Nc1ccc(F)cc1F)c1cnccn1 | 100.1
74 | CN(C(=O)c1ccc2c(c1)C(=O)N(CCC1=CCCCC1)C2=O)C1CCCCC1 | 98.4
75 | CN(Cc1ccccc1)C(=O)COc1ccc(Br)cc1 | 87.3

Brought forward from above: 4 entries, followed by the next part.
item | molecule | Vaccinia pol inh
72 | O=C(O)/C=C\C(=O)Nc1ccccc1C(=O)O | 100.3
73 | O=C(Nc1ccc(F)cc1F)c1cnccn1 | 100.1
74 | CN(C(=O)c1ccc2c(c1)C(=O)N(CCC1=CCCCC1)C2=O)C1CCCCC1 | 98.4
75 | CN(Cc1ccccc1)C(=O)COc1ccc(Br)cc1 | 87.3
76 | O=C1NC(=O)N(c2ccccc2F)C(=O)/C1=C/c1cn(CC(=O)N2CCCC2)c2ccccc12 | 99.5
77 | C[n+]1c(COc2ccccc2O)sc2ccccc21 | 100.6
78 | O=C(NCCc1ccccc1)c1ccc2c(c1)N(Cc1ccccc1)CCS2 | 100.5
79 | COc1ccc(N2C(=O)CSC(c3ccccc3)C2=O)cc1 (stereo unspecified) | 117.8
80 | NC(=O)c1ccc2[nH]c3c(c2c1)CCCC3 | 108.0
81 | O=C(c1cc2ccccc2o1)N(c1ccccn1)c1ccccn1 | 105.0
82 | O=C(Cc1ccccc1)OCC1CCCN2CCCCC12 (stereo unspecified) | 99.4
83 | Cc1c(C(=O)O)oc2ccc(S(=O)(=O)NC3CCCCC3C)cc12 (stereo unspecified) | 107.0
84 | COc1ccc(CN2CNc3c(c(C)nn3-c3ccccc3)C2)cc1 | 94.6
85 | CCCn1c(SCC(=O)N2c3ccccc3Sc3ccccc32)nc2ccccc21 | 100.4
86 | O=C(NC1CCN(C(=O)c2c(Cl)cccc2Cl)CC1)C1CCCCC1 | 101.1
87 | CCCCS(=O)(=O)N(O)c1ccc(Cl)cc1 | 98.8
88 | CC1=C(C(=O)OC(C)C)C(c2ccccc2)NC(=O)N1C (stereo unspecified) | 90.0
89 | COc1ccc(-c2csc(-c3c(C)noc3N(C(C)=O)C(C)=O)n2)cc1 | 92.2
90 | NNC(=O)C1CC2CC1CC2C(=O)NN (stereo unspecified) | 100.5
91 | Oc1c(C(c2ccccc2)N2CCOCC2)ccc2cccnc12 (stereo unspecified) | 101.0
92 | N#Cc1cc2c(nc1SCC(=O)c1ccccc1)CCCC2 | 99.8
93 | CC1CCN(C(=O)COC(=O)COc2ccc(Cl)cc2)CC1 | 108.4
94 | Fc1ccc(-c2nc3cc(N=C/C=C/c4ccc5c(c4)OCO5)ccc3o2)cc1 | 100.4
95 | COC(=O)CSc1nnc(CNC(=O)c2cccs2)n1-c1cccc(C)c1 | 80.4
96 | CCC(C)NC(=O)C1CCN(S(=O)(=O)c2ccc3nc(-c4ccccc4)[nH]c3c2)CC1 (stereo unspecified) | 100.4
97 | Cc1cccc(C)c1Nc1c(CN2C(=O)c3ccccc3C2=O)nc2ccc(Br)cn12 | 103.6
98 | CCSc1cc(C(F)(F)F)c(C(=O)N(C)Cc2c(OC)cccc2OC)cn1 | 66.3
99 | O=C(CSc1cccc[n+]1[O-])NCCCc1ccccc1 | 102.7
100 | Cc1cc(C)nc(Nc2n[nH]c(-c3ccccc3C)n2)n1 | 110.6
101 | O=C(Nc1ccc2sccc2c1)C1COc2ccccc2O1 (stereo unspecified) | 90.0
102 | Cc1ccc(NC(=O)C2COc3ccccc3O2)cc1Cl (stereo unspecified) | 106.4
103 | O=C(NCCO)c1cc2ccccc2c(=O)s1 | 91.0
104 | C=CCN(c1ccccc1C1=N/C(=C\c2ccc(C)cc2)C(=O)O1)S(=O)(=O)c1ccc(C)cc1 | 105.3
105 | CN1CCCC(OC(=O)c2ccc(C#N)cc2)C1 (stereo unspecified) | 101.0
106 | S=c1[nH]c(=S)c2cnc(N3CCc4ccccc43)nc2[nH]1 | 98.5
107 | CCOC(=O)N1CCN(CC(O)COc2cc(C)ccc2C(C)C)CC1 (stereo unspecified) | 100.6
108 | CSc1ncc(Cl)c(C(=O)N2CCN(c3cccc(Cl)c3)CC2)n1 | 95.5
109 | CCOC(=O)c1nc(-c2ccccc2)sc1-c1ccnn1C(=O)NC(C)C | 98.9
110 | CCCCn1c(CN2CCN(CC)CC2)nc2c1c(=O)[nH]c(=O)n2C | 103.0
111 | CCN(CC)S(=O)(=O)c1cccc(C(=O)Nc2nncs2)c1 | 100.6
112 | NC(=O)CN1C(=O)C(O)(CC(=O)c2ccccc2)c2ccccc21 (stereo unspecified) | 101.2
113 | NNC(=O)c1csc(CS(=O)(=O)c2ccc(Cl)cc2)n1 | 97.8
114 | COc1ccccc1NS(=O)(=O)/C=C/c1ccccc1 | 101.3
115 | Cc1c(-c2ccccc2OC(=O)c2ccccc2)[nH]c2ccccc12 | 100.1
116 | O=C(O)c1ccccc1OCc1ccccc1 | 95.1
117 | O=C(COc1ccc(Br)cc1)OCC(=O)N1CCCCC1 | 100.3
118 | CCCCc1ccc(NC(=O)COC(=O)c2ccc(Cl)nc2)cc1 | 76.9
119 | Cc1ccc(CNc2ncnc3nc[nH]c23)cc1 | 100.7
120 | Cc1ccc2c(cnn2C(=O)CCC(=O)N2CCCCC2C)c1 (stereo unspecified) | 104.1
121 | CN[C@@H]1CC2(C)OC([C@@H]1OC)n1c3ccccc3c3c4c(c5c6ccccc6n2c5c31)C(=O)NC4 (stereo partly specified) | 55.7*
122 | Cc1c(C(=O)/C=C/N(C)C)nnn1-c1ccc(Cl)cc1Cl | 94.5
123 | COc1ccc(-n2cc(-c3ccccc3)c3c(N4CCCCC4)ncnc32)cc1 | 97.2
124 | O=C1/C(=C/c2ccc(N3CCOCC3)cc2)CCc2ccccc21 | 100.5
125 | O=S(=O)(Cc1ccccc1)N1CCCCCC1 | 100.3

Further compounds follow.
item | molecule | Vaccinia pol inh
126 | Cc1ccc(-c2csc(CS(=O)(=O)C(C)(C)C)n2)cc1 | 100.1
127 | Cc1nccn1Cc1cccc2ccccc12 | 98.4
128 | Nc1nnc(C(=O)c2ccccc2N)s1 | 98.6
129 | Cc1ccn2c(NC3CCCC3)c(-c3cccnc3)nc2c1 | 89.8
130 | O=C(CCCCc1cccs1)Nc1ccccc1F | 100.5
131 | Cc1c(C#N)c2nc3ccccc3n2c(=O)/c1=C\Nc1ccc(N2CCOCC2)c(Cl)c1 | 99.9
132 | O=S(=O)(c1ccccc1)c1nc(-c2cccs2)oc1NCc1ccccc1 | 91.8
133 | CCN1C(=O)c2ccccc2Sc2ccc(C(=O)NCC3CCCO3)cc21 (stereo unspecified) | 94.3
134 | CCC(CC)NC(=O)C1C(=O)N(C)C2(C)CC1c1ccccc1O2 (stereo unspecified) | 114.2
135 | O=C1C=CC(=O)N1c1ccccc1Br | 100.7
136 | O=C(NCc1ccc(Cl)c(Cl)c1)c1cccnc1OCC(F)(F)F | 99.5
137 | CSc1ccc(-c2cn3ccsc3n2)cc1 | 99.5
138 | Cc1ccc2nc(-c3ccncc3)cc(-c3ccccc3)c2c1 | 100.3
